Bioassay records as filed in PubChem BioAssay.
Cruzain Triton – blocks cruzain activity in presence of Triton detergent; P25779; AID 1478; purified cruzain, Z-FR-AMC fluorescence, 0.01% Triton; Potency, µM, inactives show max response, negative = inhibition, actives largely listed as inhibitors; 200,000 compounds, 0.43% hits;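 also: plate controls were neutral wells for no effect and buffer without enzyme for full effect; nearly all actives have a fitted effect of over 40% in size; top concentration of the series not given in the record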
Target sequence (P25779 123-467 limits assumed): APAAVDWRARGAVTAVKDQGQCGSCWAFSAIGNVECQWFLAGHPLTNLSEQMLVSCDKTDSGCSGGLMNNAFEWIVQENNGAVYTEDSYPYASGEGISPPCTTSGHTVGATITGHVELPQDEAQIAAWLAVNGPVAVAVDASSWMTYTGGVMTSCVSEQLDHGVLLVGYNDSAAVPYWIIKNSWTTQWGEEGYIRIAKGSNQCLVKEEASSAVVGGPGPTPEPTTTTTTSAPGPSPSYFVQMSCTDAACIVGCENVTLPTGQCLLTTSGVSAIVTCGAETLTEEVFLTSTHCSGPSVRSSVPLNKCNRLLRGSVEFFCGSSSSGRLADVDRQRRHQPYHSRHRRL
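Read-out: AMC fluorescence (360 nm excitation, 450 nm emission), four reads over 2 min, first-to-third difference used. Conditions: cruzain 1.5 nM, Z-FR-AMC 2 uM, pH 5.5 acetate, 5 mM DTT, 0.01% Triton X-100.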
2A StopGo – lowers the luciferase signal of an FMDV 2A StopGo reporter. human cells with a luciferase reporter of 2A StopGo recoding; control for the full effect not named in the record. Potency, µM (series often up to 57.9 µM), for inactives: top-dose signal change, negative = less light. 410,000 compounds, 1.2% hits. AID 1159524; active = well fitted falling curve with a large enough effect; inconclusive = small, poorly fitted or top-dose-only effect; inactive = no such curve, though single readings can be large or run the other way; tested in HEK293T cells; also: % is scaled to controls: 0 for no effect and ±100 for the full control effect; nearly all actives have a fitted effect of over 45% in size; luciferase light after 4 h
SARS PLpro yeast – inhibitors of SARS-CoV papain-like protease in yeast; S. cerevisiae expressing SARS-CoV PLpro, growth rescue; control for the full effect not named in the record; AID 485353; 330,000 compounds, 0.19% hits; Potency, µM (top dose mostly 32.9 µM), without a hit: top-dose activity, positive = growth rescue; active means well fitted rising curve with a large enough effect; inconclusive means small, poorly fitted or top-dose-only effect; inactive means no such curve, though single readings can be large or run the other way; also: 0% is about no effect; nearly all actives have a fitted effect of over 55% in size; growth read by luminescence after 48 h
LASV entry inh – inhibitors of Lassa virus binding or cell entry | Lassa virus pseudotype entry inhibition, cell reporter; control for the full effect not named in the record | Potency, µM (top dose mostly 37.9 µM), for inactives: at the top dose activity change, negative = inhibition, usual class: inhibitors | 300,000 compounds, 1.2% hits; active means well fitted inhibition curve with a large enough effect; inconclusive means small, poorly fitted or top-dose-only effect, or effect the other way; inactive means flat fitted curve, though single readings scatter; tested in HEK293 cells; also: % is scaled to controls: 0 for no effect and ±100 for the full control effect; nearly all actives have a fitted effect of over 50% in size; luciferase read-out
MARV entry inh – blocks Marburg virus binding to or entry into cells. Marburg virus pseudotyped entry inhibition, cell reporter; control for the full effect not named in the record; about a third of the inactives were read at about 46 µM. Potency, µM (top dose mostly 37.8 µM), for the others: at the top dose activity change, negative = inhibition, most hits filed as inhibitors. 300,000 compounds, 1.8% hits; active = well fitted inhibition curve with a large enough effect; inconclusive = small, poorly fitted or top-dose-only effect, or effect the other way; inactive = flat fitted curve, though single readings scatter; tested in HEK293 cells; about a fifth of its hits are not listed in these tables; also: % is scaled to controls: 0 for no effect and ±100 for the full control effect; luciferase read-out
NS1 function inh – blocks influenza NS1 protein function; Potency, µM (series often up to 46.1 µM), for the others: top-dose activity, positive = more growth; AID 2326; 270,000 compounds, 0.4% hits; S. cerevisiae slowed by influenza A NS1, growth recovery by OD600; active means well fitted rising curve with a large enough effect; inconclusive means small, poorly fitted or top-dose-only effect; inactive means no such curve, though single readings can be large or run the other way; also: nearly all actives have a fitted effect of over 50% in size
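S. cerevisiae expressing influenza A NS1, grown in glucose, washed, then diluted 1:100 into pH 6.0 -URA galactose medium with 23 nl compound. Growth recovery read as OD600; NS1-free strain serves as control.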
RE007 growth inh – less growth of the S. pombe RE007 Vpr strain; S. pombe RE007 Vpr strain, BacTiter-Glo ATP luminescence, 24 h; control for the full effect not named in the record; Potency, µM (highest dose often 92.2 µM), for inactives: at the top dose activity change, negative = less growth; 360,000 compounds, 0.21% hits; active = well fitted falling curve with a large enough effect; inconclusive = small, poorly fitted or top-dose-only effect; inactive = no such curve, though single readings can be large or run the other way;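 also: % is scaled to controls: 0 for no effect and ±100 for the full control effect; nearly all actives have a fitted effect of over 50% in size; the assay follows cell death caused by Vpr and the record does not say whether a fall means rescue or toxicity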
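Fission yeast strain RE007, carrying one chromosomally integrated HIV-1 vpr copy, was seeded at OD 0.01 in PMG+AL medium with 23 nL pinned compound. After 24 h at 30 °C and 99% humidity, viability was read by BacTiter-Glo luminescence.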
Cruzain inh noDet – cruzain (T. cruzi) inhibition without detergent | purified cruzain, Z-FR-AMC fluorescence, no detergent | 200,000 compounds, 2.3% hits | Potency, µM, for the others: max response, negative = inhibition, most hits filed as inhibitors | P25779;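 also: plate controls were enzyme without inhibitor for no effect and buffer without enzyme for full effect; nearly all actives have a fitted effect of over 40% in size; top concentration of the series not given in the record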
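Purified cruzain at 1.5 nM, pre-incubated 15 min with compound at room temperature in 100 mM sodium acetate pH 5.5, 5 mM DTT, 0.00005% Triton X-100. Reaction started with 2 uM Z-FR-AMC; AMC fluorescence increase over 60 s gives rate.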
* hit, by the source's call; ? = inconclusive; · = no result given; & = joins results of further samples; [ ] = dose if it differs, or a comment. Unless noted, calls follow the shape of the dose curve; as a rule, active = well fitted curve in the direction sought with a large enough effect; inconclusive = small, poorly fitted or top-dose-only effect, or another doubt; inactive = no such curve, though single readings can be large; an effect the other way counts as inactive or inconclusive. Potency is read from the fitted curve at half-maximal effect. No enrichment for hits; 4.6% or so of the library scored in one or more.

1) O=C(c1cccc(F)c1F)N1CCCC1
2) CC(C)C(c1nnnn1Cc1ccc(F)cc1)N1CCN(C(=O)c2ccco2)CC1 (stereo not drawn)
3) COc1ccc(OC)c(/C=C/c2ccnc3ccccc23)c1
4) C=CCN1CCN(C(=O)c2cc3c(s2)CCC(CC)C3)CC1 (stereo not drawn)
5) CCCc1cc(=O)oc2c(C)c(OCC(=O)NCCCN3CCOCC3)ccc12
6) COc1ccc2c(-c3ccccc3)cc(SCC(=O)N(C)C)nc2c1
7) CN1CCN(c2ccccc2NC(=O)c2ccc([N+](=O)[O-])cc2Cl)CC1
8) O=C(NCC1CCCO1)c1cn(Cc2ccccc2Cl)nc1-c1ccccc1 (stereo not drawn)
9) Cc1nn(CC(=O)NCc2ccc(N(C)C)cc2)c(=O)c2nn(-c3ccccc3)c(C)c12
10) Cc1ccc(NC(=O)c2c(NC(=O)c3ccccc3Cl)sc3c2CCC3)cc1

| Assay by compound | 1 | 2 | 3 | 4 | 5 | 6 | 7 | 8 | 9 | 10 |
| --- | --- | --- | --- | --- | --- | --- | --- | --- | --- | --- |
| LASV entry inh | 15% | 6% | ? | -7%[46.1 µM] | · | -24% | 23%[46.1 µM] | -27% | 2%[46.1 µM] | 23%[46.1 µM] |
| Cruzain inh noDet | -2% | -3% | · | · | · | · | · | · | 14% | ? |
| MARV entry inh | 11% | -5% | -26% | ? | · | -1% | -26%[46.1 µM] | 7%[46.1 µM] | · | · |
| Cruzain Triton | -0.8% | -0.8% | · | · | · | · | · | · | -2.8% | -1.4% |
| NS1 function inh | 6% | -8% | · | -1% | 9% | 5% | 7% | · | · | · |
| SARS PLpro yeast | 21% | 9% | · | 3% | 4% | -13% | 0% | 0% | · | · |
| 2A StopGo | 8% | -22% | -7% | 17% | -11% | -17% | -13% | 14% | -18% | -6% |
| RE007 growth inh | 8% | 17% | 5% | -3% | -9% | 21% | 9% | -22% | · | · |

11) COC(C(=O)Nc1ccccc1F)c1ccccc1 (stereo not drawn)
12) CCOC(=O)c1ccc(-c2ccc(/C=C(\C#N)C(=O)Nc3ccc(C)cc3OC)o2)cc1
13) COC(=O)CC1c2cc(OC)c(OC)cc2CCN1C(=O)Nc1ccc(C)cc1Cl (stereo not drawn)
14) C/C(=C\C(=O)c1ccccc1)NCc1ccc(F)cc1
15) O=S(=O)(c1ccc(F)cc1)N1CCN(C(=S)NCC2CCCO2)CC1 (stereo not drawn)
16) CC(C)C(=O)NNC(=O)CSc1nc(C2CCCCC2)nc2ccccc12
17) Cc1cc(C)c2c(c1)c(C)cc1nnc(SCC(=O)c3cccs3)n12
18) CCc1ccc(C(=O)NNC(=O)CCc2nc3ccccc3c(=O)[nH]2)cc1
19) CCOC(=O)C1CCCCN1Cc1cc(Cl)ccc1O (stereo not drawn)
20) O=C(O)/C(=C1/OC(=O)c2ccccc21)c1ccccc1

| Assay by compound | 11 | 12 | 13 | 14 | 15 | 16 | 17 | 18 | 19 | 20 |
| --- | --- | --- | --- | --- | --- | --- | --- | --- | --- | --- |
| LASV entry inh | 0% | 18%[46.1 µM] | 11%[46.1 µM] | -1% | 6%[46.1 µM] | -11%[46.1 µM] | 2% | -1% | 7% | 2% |
| Cruzain inh noDet | 2% | -5% | 15% | 1% | · | -8% | -11% | · | -4% | -10% |
| MARV entry inh | 16% | · | · | -3%[46.1 µM] | ? | -20% | -5% | 10%[46.1 µM] | -6% | -18% |
| Cruzain Triton | 2.2% | 2.2% | -3.5% | -7.2% | · | 2.3% | -0.6% | · | -1.5% | -3.0% |
| NS1 function inh | 6% | · | · | -4% | · | 11% | -1% | · | 7% | 1% |
| SARS PLpro yeast | 14% | · | · | -1% | 3% | 16% | -2% | 2% | -1% | 3% |
| 2A StopGo | -11% | 3% | -12% | -18% | 16% | 2% | 0% | -5% | 12% | 16% |
| RE007 growth inh | -14% | · | · | 4% | 0% | 13% | -7% | -14% | -8% | -1% |

21) O=C(COC(=O)C1CCC1)Nc1ccc(Cl)cn1
22) COc1ccc(N2CCN(c3ccc(N4C(=O)COCC4=O)cc3[N+](=O)[O-])CC2)cc1
23) COc1ccccc1NC(=O)n1ncc2c(C)cccc21
24) C=CCc1c(C)nc(-c2ccccc2)nc1N/N=C/c1ccncc1
25) O=C(O)CCCCCNC(=O)Cn1nnc2ccccc2c1=O
26) CCCOc1ccc(CSc2nc3ccccc3[nH]2)cc1
27) O=S(=O)(CCN1CCSCC1)c1ccccc1
28) Cc1ccc(Cl)cc1NC(=O)c1nnn(Cc2ccccc2)c1N
29) COc1cc(S(=O)(=O)NCc2ccc3c(c2)OCO3)c(OC)cc1C
30) COc1ccc(Nc2nc(Cl)nc(Nc3ccc(OC)cc3)n2)cc1

| Assay by compound | 21 | 22 | 23 | 24 | 25 | 26 | 27 | 28 | 29 | 30 |
| --- | --- | --- | --- | --- | --- | --- | --- | --- | --- | --- |
| LASV entry inh | 0%[46.1 µM] | 16% | -26%[46.1 µM] | -26%[46.1 µM] | 4%[46.1 µM] | 24%[14.3 µM] | -9% | -5%[46.1 µM] | 13% | -24% |
| Cruzain inh noDet | · | 17% | ? | · | · | 1% | · | -1% | · | · |
| MARV entry inh | 3%[46.1 µM] | ? | ? | ? | 8%[46.1 µM] | ? | 4%&4% | ? | ? | -1%[46.1 µM] |
| Cruzain Triton | · | -3.6% | -8.1% | · | · | -7.2% | · | -3.9% | · | · |
| NS1 function inh | · | ? | · | · | 3% | -34% | 1% | · | 3% | · |
| SARS PLpro yeast | -18% | 13% | · | -13% | 0% | -12% | 0% | · | 1% | -5% |
| 2A StopGo | -8% | ? | 0% | 6% | -11% | -4% | -9% | -9% | 100%[activator] | -19% |
| RE007 growth inh | 1% | -8% | · | -11% | 5% | ? | -1% | · | -1% | -7% |

31) CCOc1cc(/C=N/NC(=O)CNc2ccc(C)cc2)ccc1OC(=O)c1ccccc1
32) CC(=O)Nc1ccc(C(=O)NCCc2ccccc2)cc1
33) C[C@H]1CCC(=O)N([C@H](CSc2ccccc2)Cc2ccccc2)CC1
34) Cc1onc(-c2ccccc2Cl)c1C(=O)O/N=C(\N)c1ccccc1
35) COc1cccc(CNC(=O)CSc2nc(=O)[nH]c3c2CCCC3)c1
36) Cc1ccc2[nH]c3c(c2c1)CN(C(=O)CN1CCN(c2ccccc2F)CC1)CC3
37) Cc1c(NC(=O)CSc2ncnc3c2cnn3-c2ccccc2)c(=O)n(-c2ccccc2)n1C
38) O=C(N/N=C/c1cccs1)c1cccnc1
39) COc1ccccc1N(CC(=O)NC1CCCC1)C(=O)C1(C)CC(=O)N=C2C=CC(C)=CN21 (stereo not drawn)
40) CCOC(=O)c1ccccc1NC(=O)c1ccc2c(SCC(=O)O)c3c(nc2c1)CCCC3

| Assay by compound | 31 | 32 | 33 | 34 | 35 | 36 | 37 | 38 | 39 | 40 |
| --- | --- | --- | --- | --- | --- | --- | --- | --- | --- | --- |
| LASV entry inh | ? | ? | · | · | -5%[46.1 µM] | · | -4% | 6%[46.1 µM] | -10% | · |
| Cruzain inh noDet | 10µM* | 10% | · | · | -13% | 8% | · | · | · | · |
| MARV entry inh | 2% | 9% | · | · | · | 0% | -23% | -2%[46.1 µM] | 0%[46.1 µM] | · |
| Cruzain Triton | -2.7% | -1.3% | · | · | 0.4% | -2.6% | · | · | · | · |
| NS1 function inh | ? | -2% | -36% | -21% | · | 3% | · | -2% | 1% | 25% |
| SARS PLpro yeast | 2% | -19% | -27% | -3% | · | -33% | 0% | -1% | 1% | -1% |
| 2A StopGo | · | 26% | 31%[activator] | 0% | -6% | · | -20% | 2% | -6% | ? |
| RE007 growth inh | -12% | -4% | 18% | -4% | · | · | 8% | 0% | 5% | -11% |

41) O=C(NNc1nc(-c2ccc(Br)cc2)cs1)c1ccco1
42) Cc1ccc(C2N(c3cccc(Cl)c3)C(=O)N3CCCN23)cc1 (stereo not drawn)
43) Cc1ccc(C)c(Nc2nc3c(S(=O)(=O)c4ccc(Br)cc4)nnn3c3ccsc23)c1
44) CCOc1cc(C(=O)Nc2ccc(-c3cn4cccnc4n3)cc2)cc(OCC)c1OCC
45) O=C(CSc1nnc(CNC(=O)c2ccccc2F)o1)c1ccccc1
46) CCN(CC(=O)Nc1ccccc1C(F)(F)F)C(=O)CCc1c(C)[nH]c(=O)c(C#N)c1C
47) COc1ccc(C(=O)NCc2ccccc2)cc1S(=O)(=O)N1CCCc2ccccc21
48) O=C(Nc1ccc2c(c1)OCO2)c1ccc(Br)c(S(=O)(=O)N2CCCC2)c1
49) O=C(COC(=O)C1CC(=O)N(CCc2ccccc2)C1)c1ccc[nH]1 (stereo not drawn)
50) Cc1cccc(NC(=O)c2nc[nH]c2C(=O)N[C@@H](C)C(=O)OCc2ccccc2)c1
51) CC12CCC(C(=O)NNc3ccc([N+](=O)[O-])cc3)(CC1=O)C2(C)C (stereo not drawn)
52) O=C(c1cc(-c2ccccc2Cl)on1)N1CCCC1

| Assay by compound | 41 | 42 | 43 | 44 | 45 | 46 | 47 | 48 | 49 | 50 | 51 | 52 |
| --- | --- | --- | --- | --- | --- | --- | --- | --- | --- | --- | --- | --- |
| LASV entry inh | · | · | ? | -1%[46.1 µM] | -25% | -2%[46.1 µM] | ? | ? | 7% | · | 10% | ? |
| Cruzain inh noDet | · | · | -6% | ? | 10% | · | ? | ? | · | · | 5% | · |
| MARV entry inh | · | · | · | -29%[46.1 µM] | -5%[46.1 µM] | ? | -24% | ? | 29% | · | 16% | 11µM* |
| Cruzain Triton | · | · | -4.7% | -12% | -1.6% | · | 3.5% | -5.7% | · | · | -0.9% | · |
| NS1 function inh | 18% | -4% | · | · | -12% | 0% | -8% | -111% | · | -55% | -76% | -3% |
| SARS PLpro yeast | 1% | 0% | · | · | 1% | -3% | 10% | -2% | 1% | 1% | -7% | -4% |
| 2A StopGo | 50%[activator] | -11% | -16% | 0% | 4% | 10% | 47%[activator] | ? | -3% | -16% | -6% | -20% |
| RE007 growth inh | 10% | -3% | · | · | 17% | 4% | -3% | -12% | 16% | -17% | -6% | ? |
